Source: PubChem
AF4-AF9 inh = inhibitors of human MLL-AF4/AF9 interaction | P42568 | AlphaScreen, biotin-AF4 peptide binding to FLAG-AF9 | inhibition, % at 10 µM | actives 0.47% (n = 350,000);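 active means every replicate reaching a set inhibition limit, whatever the replicate mean, cut at about 25% in these data; inconclusive means mean inhibition reaches that limit but some replicates miss it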;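 further: 0% = plate neutral control median and 100% = total signal loss; the record names both 10 and 1 µM as test concentration; the first replicate is given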
Beta apoptosis = blocks beta cell apoptosis; actives 0.8% (n = 300,000); protection from apoptosis, % (concentration not given with the values); INS-1E cytokine-induced death, ATP luminescence, 48 h; percent of positive-control rescue, neutral wells zero;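 active means all replicates at 75% or more, or half of them and the mean; inconclusive means half reach 75% but not the mean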;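 further: 0% = cytokine-treated negative control wells and 100% = positive control rescue; higher means more ATP so stronger rescue from cytokine killing; wells of about 40 µL received 100 nL stock; the first replicate is given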
A1 inh = inhibitors of the anti-apoptotic protein A1, read as caspase activation. MEF A1-2A-BIM cells, Caspase-Glo 3/7 luminescence, 3 h; percent of clofoctol response, vehicle zero. caspase activation, % (concentration not given with the values). actives 0.066% (n = 330,000). AID 2462;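 active means over half of replicate activation scores above 10%, or exactly half above 10 with the replicate mean above 10; inconclusive means replicate mean below 10 yet half the replicates above 10; inactive means over half of replicates below 10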;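 further: wells of about 30 µL received 50 nL stock; many hits fall short of the cut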
T cruzi inh = blocks replication of Trypanosoma cruzi; T. cruzi beta-gal in NIH3T3, luminescence, 90 h; inhibition, % (test concentration not listed); actives 1.4% (n = 300,000);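 active means mean inhibition across valid replicates above about 55%, limit read from the data; inconclusive means mean below that limit but half or more replicates reach it; inactive means mean below it, under half of replicates reach it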;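 further: signal also drops with host cell toxicity which is not excluded here; 0% = plate median of DMSO wells and 100% = zero luminescence signal; higher percent means less beta-gal luminescence so fewer parasites; stock transfer was 50 nL into about 50 µL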
RanGTP-Imp inh = disruptors of Ran-importin-beta complex formation – biochemical, FRET, CFP-Ran, YFP-importin-beta, homogeneous, primary screen; cell-free CFP-Ran/YFP-importin-beta FRET ratio; inhibition, % (concentration not given with the values); actives 1.1% (n = 300,000); AID 2216;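 active means most replicates above 15%; inconclusive means exactly half above 15%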;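 further: 0% = DMSO wells and 100% = Ran loaded with GDP instead of GTP; wells of about 40 µL received 100 nL stock; the first replicate is given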
Calb FLC = affects C. albicans growth with fluconazole. C. albicans CaCi-2 (fluconazole-resistant clinical isolate) + fluconazole, Alamar Blue growth, 48 h. growth inhibition, % (test concentration not listed). actives 0.57% (n = 300,000);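 active means most replicates above 75%; inconclusive means exactly half above 75%; inactive means most below 75%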;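 further: all wells also contain fluconazole at 8 µg/ml as a sub-toxic cotreatment; 0% = median of DMSO wells and 100% = median of geldanamycin control wells; wells of about 8 µL received 7.5 nL stock; the first replicate is given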
Vif A3G = HIV-1 Vif–A3G interaction blockers – biochemical, TR-FRET, GST-Vif 1-94, biotin-A3G peptide, dose response retest, primary screen (AID 1117319). TR-FRET GST-Vif / biotin-A3G peptide binding; higher % means a stronger effect; test concentration not given here; strong numbers were not always called active. one-dose inhibition, %; IC50 in µM for titrated hits. actives 0.57% (n = 260,000);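 active means above the screen mean plus three standard deviations and confirmed in dose response; inconclusive means results disagree or hit not tested in dose response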;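 further: Vif residues 1-94 fused to GST binding biotinylated APOBEC3G peptide 110-148; 0% = full assay without inhibitor and 100% = GST in place of GST-Vif; retest series ran down from 100 µM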
LANA-H2B inh = blocks KSHV LANA binding to histone H2A/H2B; AID 2629; cell-free LANA-H2A/H2B peptide, fluorescence polarization; actives 0.6% (n = 320,000); inhibition, % (test concentration not listed); in the data active means inhibition mostly above about 10%, no sharp cut-off; inactive means mostly below about 6.7%;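 further: stock transfer was 7.5 nL into about 10 µL; 0% = median of vehicle wells and 100% = median of positive control wells; one replicate is shown; the record names a cut of 25% in any replicate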
Target sequence (Q9QR71 whole entry, looked up): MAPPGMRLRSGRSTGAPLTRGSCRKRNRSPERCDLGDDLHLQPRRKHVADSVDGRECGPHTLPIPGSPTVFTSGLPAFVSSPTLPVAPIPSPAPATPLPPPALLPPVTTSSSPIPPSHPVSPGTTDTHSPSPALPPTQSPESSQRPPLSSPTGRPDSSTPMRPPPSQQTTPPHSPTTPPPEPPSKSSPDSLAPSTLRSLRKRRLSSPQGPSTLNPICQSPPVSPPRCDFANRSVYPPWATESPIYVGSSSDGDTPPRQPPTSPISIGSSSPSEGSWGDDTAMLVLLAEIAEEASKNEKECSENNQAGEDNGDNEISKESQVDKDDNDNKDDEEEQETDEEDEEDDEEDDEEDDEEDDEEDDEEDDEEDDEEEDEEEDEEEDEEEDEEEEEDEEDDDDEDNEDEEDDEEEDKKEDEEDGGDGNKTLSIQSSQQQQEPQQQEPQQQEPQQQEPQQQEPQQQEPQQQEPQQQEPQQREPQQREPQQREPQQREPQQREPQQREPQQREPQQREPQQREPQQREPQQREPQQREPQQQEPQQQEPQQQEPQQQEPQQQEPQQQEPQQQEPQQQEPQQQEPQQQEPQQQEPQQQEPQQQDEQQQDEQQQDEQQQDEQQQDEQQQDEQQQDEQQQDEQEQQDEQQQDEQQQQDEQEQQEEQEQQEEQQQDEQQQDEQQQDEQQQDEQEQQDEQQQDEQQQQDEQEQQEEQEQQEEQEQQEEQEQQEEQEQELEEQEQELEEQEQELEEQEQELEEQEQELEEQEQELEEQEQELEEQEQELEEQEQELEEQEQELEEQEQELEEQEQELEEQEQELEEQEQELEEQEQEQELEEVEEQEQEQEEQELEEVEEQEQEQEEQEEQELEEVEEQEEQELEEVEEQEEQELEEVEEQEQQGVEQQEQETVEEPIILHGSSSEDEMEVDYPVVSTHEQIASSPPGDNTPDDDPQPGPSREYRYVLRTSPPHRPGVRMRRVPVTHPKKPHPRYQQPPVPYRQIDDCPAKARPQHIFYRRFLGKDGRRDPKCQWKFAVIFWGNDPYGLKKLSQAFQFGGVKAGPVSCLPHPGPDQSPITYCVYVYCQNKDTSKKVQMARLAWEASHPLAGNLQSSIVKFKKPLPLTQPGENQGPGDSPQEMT
The depositor's hits bear a star; ? = inconclusive; · = no result given.

Molecule,Calb FLC,Vif A3G,AF4-AF9 inh,T cruzi inh,RanGTP-Imp inh,Beta apoptosis,LANA-H2B inh,A1 inh
O=C(Nc1ccc(Br)cc1)C1CC(O)CN1C(=O)Oc1ccccc1 (stereo not drawn),-6.8,5.3%,0.3,-1.9,6.5,1.8,2.9,-0.5
OCCC1CN(Cc2cc(F)ccc2-n2cccn2)CCN1C1CCCC1 (stereo not drawn),3.0,16.2%,5.5,8.2,-0.1,-3.9,-0.8,-1.0
CCOc1ccc(CNC(=O)Nc2ccccc2)cc1,-4.4,-7.6%,0.3,-6.7,6.6,·,2.6,-1.5
COc1ccc(CC(=O)Nc2ccc3nc(SC)sc3c2)cc1OC,-19.5,-0.9%,0.9,5.2,2.0,-1.9,·,0.0
COC(=O)/C=C1\S/C(=N\N=C\CC(=O)OC)NC1=O,6.0,13.8%,-2.7,-38.6,2.8,-2.5,-4.3,0.4
C=CCOCCN1C(=O)C2C(c3ccccc3)C=CC(c3ccccc3)C2C1=O (stereo not drawn),-5.2,4.2%,·,4.5,-3.5,-1.4,2.5,0.1
Cc1ccc(-c2csc(N3CCC(C(N)=O)CC3)n2)cc1,·,·,-0.9,·,·,-2.2,-0.1,0.7
COc1ccc(CCNC(N)=S)cc1OC,-2.1,-8.8%,·,-17.0,-1.8,-1.3,2.8,0.6
S=c1[nH]cc(-c2ccccc2)n1-c1cccc(Cl)c1,-4.8,·,-1.3,-4.4,2.7,-1.2,-2.3,0.4
Cc1ccc(-c2cc(C(=O)O)c3cc(Br)ccc3n2)o1,-4.8,·,-13.2,-5.6,-5.8,-7.3,0.4,0.1
CCOC(=O)C1CCN(C(=O)c2ccc(Cl)c(S(=O)(=O)N3CCOCC3)c2)CC1,-0.2,78.0%,-6.9,-16.4,-1.6,·,·,·
Cc1cccc(N(C)S(=O)(=O)c2c(C)noc2C)c1,2.9,·,0.4,-20.4,1.0,·,-0.4,-0.1
c1ccc2cc(OCc3nc4ccccc4[nH]3)ccc2c1,31.1,-8.0%,·,14.3,-2.5,·,-1.7,-0.5
COc1ccc([N+](=O)[O-])cc1NC(=O)C(C)N(C)Cc1cccc(OC)c1OC (stereo not drawn),5.7,·,12.9,-1.4,0.7,10.2,3.4,0.7
COc1ccc(C)cc1NC(=O)C(OC(=O)C1CC1)c1ccccc1 (stereo not drawn),-15.6,1.1%,2.0,4.8,0.4,3.4,-3.3,0.2
COc1ccc(-c2cc(C(F)(F)F)nc(SCC(=O)Nc3cc(C)on3)n2)cc1OC,·,24.1%,·,11.5,0.4,1.2,-3.1,1.7
CCC(=O)N1c2ccc(S(=O)(=O)N3CCN(CC)CC3)cc2CC1C (stereo not drawn),-10.4,5.1%,-1.7,-19.7,0.7,-0.1,-0.1,2.1
O=C(CNC(=O)c1ccco1)NCc1ccc2c(c1)OCO2,·,·,-4.6,·,·,-7.2,2.6,-0.2
CC[N+](CC)(CC=C(C)C)CC(=O)OC,13.3,·,-16.5,-16.4,0.8,-4.2,3.5,0.1
O=C(CCC1CCCCC1)Nc1ccc(S(=O)(=O)Nc2nccs2)cc1,-4.5,-4.4%,·,-12.1,-2.8,-1.6,3.2,-0.4
O=C(NCC1CCCO1)c1ccc(S(=O)(=O)N2CCCCC2)cc1 (stereo not drawn),-3.2,17.6%,·,-4.4,6.3,-0.7,-0.5,2.4
CCn1c(SCC(=O)Nc2nccs2)nnc1-c1ccc(S(=O)(=O)N2CCCCCC2)cc1,-5.5,-9.8%,·,32.5,4.2,4.2,0.7,-0.3
CC1(C)CC(=O)C/C(=N\NC(=O)CCc2ccc(S(=O)(=O)N3CCOCC3)cc2)C1,23.1,1.5%,-0.8,2.6,-0.1,-4.9,-0.3,0.7
CSc1ccccc1NC(=O)c1cccnc1,-12.2,-0.9%,·,-17.6,-6.3,-2.2,1.8,-0.6
Cc1c(Br)c([N+](=O)[O-])nn1CC(=O)c1ccccc1,-5.6,-3.5%,3.2,8.9,-1.6,-18.7,-10.0,0.9
Cc1ccnc(NC(=O)c2oc3ccccc3c2C)c1,0.0,-5.2%,8.5,-1.3,?,9.7,-7.3,-6.3
CCN1C(=O)C(CC(=O)Nc2ccc(OC)cc2)N(Cc2cccnc2)C1=S (stereo not drawn),12.3,0.7%,·,-2.6,0.5,1.2,0.1,0.3
O=C1C2C3C=CC(C3)C2C(=O)N1CC1CCCO1 (stereo not drawn),-4.8,-0.7%,·,-10.9,·,-3.3,-8.8,0.4
COc1cccc2cc(C(=O)N3CCN(C/C=C/c4ccccc4)CC3)c(=O)oc12,0.0,4.2%,·,-5.7,?,2.5,2.0,0.8
O=[N+]([O-])c1cc(-c2nc3nc4ccccc4nc3n2CCc2ccccc2)cc([N+](=O)[O-])c1,-5.3,0.5%,·,55.5*,6.1,-5.4,2.7,-0.4
Cc1cccc(N2C(=NC(=O)c3ccccc3)SC3CS(=O)(=O)CC32)c1 (stereo not drawn),7.7,-16.1%,-0.7,15.9,-3.9,·,-4.2,-0.5
O=C(CN1CCN(Cc2ccccc2)CC1)Nc1cccc(Br)c1,-2.7,·,-8.3,14.9,1.8,1.7,-2.0,0.4
O=S(=O)(NCC1CCCO1)c1ccc(S(=O)(=O)N(Cc2ccc(F)cc2)Cc2ccco2)cc1 (stereo not drawn),-11.4,4.5%,·,-24.4,2.6,·,-0.2,0.3
COc1ccc(N2CCN(/C(=N\S(=O)(=O)c3ccccc3)Nc3nc(C)cc(C)n3)CC2)cc1,-4.5,8.5%,·,6.4,-1.4,1.9,2.9,0.5
COc1ccc(-c2cc(C(=O)NC3CCCC3)no2)cc1,6.1,6.9%,1.1,15.0,4.4,2.6,-2.6,-1.4
COCCNC(=O)c1n[nH]c2ccccc12,-3.5,0.6%,-4.4,-6.3,?,-4.0,0.7,-0.3
Cc1ccccc1OCC(=O)Nc1ccc(N2CCN(C)CC2)c(Cl)c1,4.1,·,2.7,31.9,1.7,4.6,-2.9,0.4
O=C(N/N=C/c1ccccc1Br)C1CC1,-14.4,·,-1.4,-11.0,0.1,-5.0,-0.7,-0.1
CC1(C)Cc2nc3nc(SCC(=O)NCCc4ccccc4)n(-c4ccccc4)c(=O)c3cc2CO1,29.2,-3.6%,·,3.3,-2.0,2.2,-0.6,-1.0
Cc1nn(Cc2ccc(F)cc2)c2sc(C(=O)Nc3ccc(N4CCOCC4)cc3N3CCOCC3)cc12,-7.0,·,16.8,22.4,-0.4,13.9,3.2,-0.4
O=S(=O)(c1ccccc1)c1ccc(NCc2ccco2)cc1,-0.3,2.3%,·,-4.3,0.2,-1.3,-2.0,0.9
O=C1c2ccc(Cl)cc2S(=O)(=O)c2cccc(C(=O)N3CCC(Cc4ccccc4)CC3)c21,·,·,-0.1,·,·,2.9,-1.7,0.2
N#C/C=C1\n2c(nc3ccccc32)OC12CCCCC2,27.2,?,·,4.7,2.0,-12.6,-6.3,-0.6
COc1ccc(C(=O)O/N=C(\C)c2ccccc2)cc1,-7.1,3.3%,·,-7.0,2.6,-4.4,1.0,0.1
COc1cc(C2C(C(C)=O)=C(O)C(=O)N2Cc2ccccc2)ccc1O (stereo not drawn),4.1,1.9%,-10.0,4.0,-1.1,0.6,0.9,-1.2
Cc1[nH][nH]c(=O)c1C(c1ccc(Cl)cc1)c1c(C)[nH][nH]c1=O,0.4,26.4%,-23.9,0.7,1.9,-5.6,0.9,-0.5
CC(C(=O)N1CCc2ccccc21)n1cnc2c1c(=O)n(C)c(=O)n2C (stereo not drawn),·,·,0.1,·,·,3.3,-2.0,-1.2
Cc1nnc(SCC(=O)Nc2ncc3c(n2)CC(C)(C)CC3=O)s1,0.2,-0.2%,·,-15.1,-4.5,-7.6,-0.5,0.0
Cc1ccc(-c2nc(CS(=O)CC(=O)N3CCN(c4ccccc4)CC3)c(C)o2)cc1 (stereo not drawn),3.8,·,5.0,16.6,1.1,-0.2,-5.9,-0.4
O=C(NCCCN1CCOCC1)NC12CC3CC(CC(C3)C1)C2,-1.3,-1.0%,·,-7.3,0.4,5.9,6.7,0.7

(list continues)
Molecule,Calb FLC,Vif A3G,AF4-AF9 inh,T cruzi inh,RanGTP-Imp inh,Beta apoptosis,LANA-H2B inh,A1 inh
CCN(CCn1cccn1)Cc1ccccc1OCC(O)CN1CCc2ccccc2C1 (stereo not drawn),-13.5,-2.7%,4.5,7.5,-4.9,15.6,0.8,-1.0
Cn1cccc1C(=O)OCC(=O)Nc1ccc2c(c1)CCC2,-25.6,29.4%,·,-19.2,-0.2,-13.2,-1.4,0.0
Cc1cc(=O)oc2ccc(OCC(=O)O)cc12,-11.7,5.8%,·,-15.5,?,-2.9,-2.3,-0.2
Cc1cc(C)c(OCC(=O)OCC(=O)NC2CCC(C)CC2)c(C)c1 (stereo not drawn),5.1,-1.8%,-0.8,-6.6,0.6,-0.3,1.5,-0.1
COc1cc(/C=C/C(=O)OCC(=O)N2CCCC2)ccc1OCC#N,·,-11.3%,31.2*,·,·,-3.8,-0.1,0.0
CCOC(=O)c1c(C)[nH]c(C)c1C(=O)CN1C(=O)NC(CC(C)C)C1=O (stereo not drawn),12.2,-2.0%,·,-0.9,-0.2,-1.6,4.5,-0.6
Cc1cccc(NC(=O)C2CCN(C(=O)NCc3ccccc3)CC2)c1C,-4.5,·,-1.8,-10.3,-2.1,-7.8,-3.6,-0.1
Cc1cc(C)c(S(=O)(=O)c2ccccc2C)c(Cl)n1,-6.9,8.5%,·,54.8*,-2.6,-8.5,0.3,0.1
Cc1ccc(C)c(OCC(O)CN2C(C)CCCC2C)c1 (stereo not drawn),-16.7,2.6%,·,12.5,-3.5,-1.3,-1.7,0.5
CS(=O)(=O)N(CC(=O)NCc1ccco1)c1ccccc1Cl,-5.8,3.7%,·,-15.0,-3.2,-12.5,0.2,-0.2
COc1ccc(OCC(=O)NNC(=O)CCc2ccccc2)cc1,-3.1,·,0.8,-8.2,-1.8,-3.8,5.6,-0.5
Cc1ccc(S(=O)(=O)NC(=O)Nc2cc(C(C)(C)C)on2)cc1,-4.3,2.1%,-1.4,-8.1,0.0,-7.5,-1.0,-0.2
CN(C)CCCN(C(=O)C1COc2ccccc2O1)c1nc2ccc(F)cc2s1 (stereo not drawn),3.7,-2.6%,9.0,46.1,1.2,-8.2,-0.6,-0.4
Cc1ccc(C(OCC(O)CNCc2ccc(F)cc2)c2ccccc2)cc1 (stereo not drawn),-10.0,2.1%,8.1,-12.8,0.9,26.5,-3.4,0.0
C=CCN1C(=O)C(O)(CC(=O)c2ccco2)c2cc(Br)ccc21 (stereo not drawn),-5.0,3.7%,-18.9,-15.0,3.0,-3.7,-9.0,-0.5
Cc1cc(C)c2[nH]c3nc(SCC(=O)O)nnc3c2c1,-4.1,12.3%,2.2,-7.2,-3.4,·,-7.4,-3.5
